# NPYLR7 agonist – mosquito NPYLR7 agonism; AID 1259423; HEK293T NPYLR7/Galpha15, GCaMP6s calcium fluorescence; activation, % at 10 µM; 270,000 compounds, 0.15% hits; in the data active = activation above about 40%;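 note: 0% = vehicle and 100% = reference agonist at the receptor; some compounds past the cut are filed as inactive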
# NPYLR7 agonist max-min – second read-out of NPYLR7 agonist, no call of its own (marks repeat the call); activation, %; measured here: Max-Min RFU normalised activation; some inactives read as strong as hits;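 span of the calcium signal over five minutes; 0% = vehicle and 100% = native peptide agonist; compound fluorescence can raise it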
# Starred values were filed as active, the others as inactive; & = joins results of further samples. Not all compounds are listed; the hit share may differ from the screen's.
SMILES,NPYLR7 agonist,NPYLR7 agonist max-min
O=C(OCCCC(F)(F)C(F)(F)F)c1cccc([N+](=O)[O-])c1,-7,-9
COCC(C)NC(=O)c1occc1CS(=O)(=O)c1ccccc1 (stereo not drawn),10,9
CCCC(=O)N1CC(=O)N2CC(C)c3ccccc3C2C1 (stereo not drawn),-1,14
Cc1cc(C)cc(N(C)C(=O)c2ccc(-n3cnnn3)c(C)c2)c1,1,1
CCN1CCN(c2nc(-c3cnc(N4CCCCC4)nc3C)cc(=O)[nH]2)CC1,2,1
C=C(C)Cn1c(N2CCC(Cc3ccccc3)CC2)nc2c1c(=O)[nH]c(=O)n2C,9,6
Cc1ccccc1CCC1CCCN(CCO)C1 (stereo not drawn),3,-7
CC(C)NC(=O)Nc1ccc(CNC(=O)c2csc3c2CCCC3)cc1,5,3
CCCn1cc(C2CCN(C(=O)c3ccc(C#N)cc3)CC2)c2ccccc21,4,-8
COCCCN(Cc1ccc([N+](=O)[O-])cc1)Cc1cccn1Cc1ccc(C(F)(F)F)cc1,16,11
CCOC(=O)C1(CCOc2ccccc2)CCN(Cc2nc(C(C)C)cs2)CC1,-5,-11
CC1=NOC(C(=O)N(C)Cc2c(C)noc2C)C1 (stereo not drawn),-2,17
COc1cccc(N2CCN(CC(=O)c3c(C)[nH]c4ccccc34)CC2)c1,3,-2
CCn1c(C(=O)N(CC(C)O)C(C)C)cc2ccccc21 (stereo not drawn),-7,-6
COCCN1CC(NCC(=O)Nc2cccc(C)c2C)CC1=O (stereo not drawn),4,3
O=[N+]([O-])c1cc(S(=O)(=O)N2CCCC2)ccc1NN=C1CCCCC1,-7,-10
CCSc1nc2c(c(=O)n1-c1ccc(OC)c(OC)c1)SCC2,-10,-15
C/C=C(\C)CN(C)Cc1nc2ccc(C)cc2[nH]1,2,1
CCCCN(Cc1nc2ccccc2c(=O)[nH]1)C(=O)COc1ccc(F)cc1Cl,8,3
Cc1ccc2nc(-c3ccc(F)cc3)cn2c1,2&2,6&1

# Reprinted from the part before: two compounds; new compounds follow.
SMILES,NPYLR7 agonist,NPYLR7 agonist max-min
CCCCN(Cc1nc2ccccc2c(=O)[nH]1)C(=O)COc1ccc(F)cc1Cl,8,3
Cc1ccc2nc(-c3ccc(F)cc3)cn2c1,2&2,6&1
Cc1ccccc1CN1CCN(c2ncc(C(=O)Nc3ccccc3)s2)C1=O,5,2
CC1CN(c2ccc(C#N)cn2)CC(c2ccsc2)O1 (stereo not drawn),3,1
CCc1nc2ccc(C(=O)NCc3ccccc3OC)cn2c1N(CC)CC(=O)N(C)C,17,15
COc1ccc(C2c3cccn3-c3ccccc3N2C(=O)CN(C(=O)c2ccc(C(F)(F)F)cc2)C(C)C)cc1 (stereo not drawn),-3,4
Cc1[nH]c(=O)c(C#N)cc1-c1ccc2nccn2c1,1,-12
Cc1ccccc1Cn1ccnc1CN(CC1CC1)C(=O)c1ccc(Cl)cc1,-8,8
N[C@@H]1CCCCN(c2c(F)cc3c(=O)c(C(=O)O)cn(C4CC4)c3c2Cl)C1,4,-6
CCCC1=NCCn2cccc21,4,2
O=C1OCCN1CCNCC1(O)CCCN(Cc2ccc(F)c(F)c2)C1=O (stereo not drawn),-1,-3
COc1cccc(-c2nnc(SCc3ccc(C(=O)N4CCN(C)CC4)cc3)n2-c2cccc(C)c2)c1,19,16
COc1cccc2cc(C(=O)Nc3ccc(Oc4ccccc4)cc3)c(=O)oc12,-12,-17
COc1ccccc1-c1onc(C)c1C(=O)NCCCN1CCOCC1,2,1
CCCCCC1=CCCC1=NNC(=O)C(N)=O,5,4
Cc1ccc(S(=O)(=O)Nc2ccc3oc(C)c(C(=O)OC(C)C)c3c2)cc1[N+](=O)[O-],-8,-12
CC(=O)NCCNC(=O)Nc1cn(C)c2ccccc12,3,-3
O=S(=O)(c1ccc(F)cc1)N1CCN(C(c2ccccc2)c2ccc(Br)cc2)CC1 (stereo not drawn),31,29
COc1cccc(C2=NN(C(=O)CN3CCOCC3)C(c3ccccc3Cl)C2)c1 (stereo not drawn),-1,5
COCCN(CC1CCCN(C2Cc3ccccc3C2)C1)C(=O)/C=C/c1ccc(OC)cc1 (stereo not drawn),4,-3
CC(=O)CSc1nc2sc(C)c(C)c2c(=O)n1C1CCCCC1,1,1
CCOC(=O)C1CCCCN1C(=O)C1OC(c2ccncc2)=NN1C(C)=O (stereo not drawn),-5,-7
COC(C)(C)CC(C)NCc1ccc2nonc2c1 (stereo not drawn),-8,-9
Cc1cccc(CN2CCN(c3ccc4c(c3)OCO4)C(=O)C2C)c1 (stereo not drawn),-1,3
CNC(=O)c1nn(CN(C)Cc2ccc(OC)cc2)c(=O)c2ccccc12,2,8
CC(=O)NC(C)c1ccc(-c2ccn[nH]2)cc1 (stereo not drawn),1,15
Cc1nc(C)c(CC(=O)N(C)C2Cc3ccccc3C2)c(=O)[nH]1,1,-3
COC(=O)CCCCCN,-4,-9
Cc1cc(C(=O)N(CCCN(C)C)c2nc3ccccc3s2)nn1C,16,13
O=c1c2c(-c3ccccc3)csc2nc2c3ccccc3c(N3CCCCC3)nn12,-7,-10
O=c1oc2cc(Br)c(O)cc2c2c1NCCC2,11,9
Cc1ccc(-c2nc(C)c(C(C)C)c(N3CCN(C(=O)Nc4ccc(F)c(Cl)c4)CC3)n2)cc1,4,8
COc1ccc(-n2c(C)cn3c4c(=O)n(CCN5CCOCC5)c(=O)n(C)c4nc23)cc1,5,-2
COc1ccccc1-c1nccnc1NCCc1ccncc1,10,1
Cc1nc(CN(C)C(=O)CC2(c3ccccc3F)CC(=O)N(C3CCCCC3)C2=O)cs1 (stereo not drawn),21,8
CCCc1c(C)nn(-c2ccc(C(=O)NC3CCC(C(C)(C)C)CC3)cc2)c1C (stereo not drawn),-7,-10
Cc1ccc2c(c1)C(=C(C#N)C#N)C=C(c1ccc3c(c1)OCCCO3)O2,4,10
CC(C)(C)NC(=O)Cn1nc(-c2ccco2)c2sc(N3CCCCC3)nc2c1=O,-1,-7
C/C(=N/NC(=O)CN1CCOCC1)c1ccc([N+](=O)[O-])cc1,-6,2
CC(C)c1cc(N(C)C2CCCCC2)nc(SCc2ccc(C(=O)N3CCCC3)o2)n1,2,4
O=C(c1ccccc1)N1CCC(NCCOc2ccccc2F)CC1,8,1
CNC(=O)Cn1nc(C)c2cnn(-c3ccccc3)c2c1=O,-7,-6
COc1cccc(C(CN2CCN(S(=O)(=O)c3ccc(Cl)cc3)CC2)OCc2cccc(Cl)c2)c1 (stereo not drawn),13,-1
O=C(NC(c1ccccc1)c1ccc2ccccc2n1)C1CCN(Cc2cccc(C(F)(F)F)c2)CC1 (stereo not drawn),-4,-6
Cc1ccc(CN(CCc2ccccc2)C(=O)CN(Cc2ccc(C(F)(F)F)cc2)Cc2ccco2)o1,-7,1
CC1=NCCN1S(=O)(=O)c1ccc(Br)c(C)c1,0,-2
CCN(CC)CCN(C)C/C(C)=C/c1ccccc1,-1,-1
CC(=O)c1ccc(S(=O)(=O)NCCOc2ccc(-c3ccc(C)cc3)nn2)cc1,-1,-7
CC(C)n1nc(C(=O)N(C)c2ncccc2F)c2ccccc2c1=O,2,-3
CCCn1c(=NC(=O)C2=COCCO2)sc2cc(F)ccc21,2,0
CCS(=O)(=O)N1CCC(C(=O)Nc2ccc(Br)cc2Cl)CC1,2,6
COc1ccc(OC)c(C2c3cccn3-c3ccccc3N2C(=O)CN(C(=O)Nc2ccc(C)c(C)c2)C2CC2)c1 (stereo not drawn),16,25

# Later entries.
SMILES,NPYLR7 agonist,NPYLR7 agonist max-min
CC(C)c1ccccc1NS(=O)(=O)c1cccs1,-11,-8
CCCc1cc(NCCN(C)C)n2c(nc3ccccc32)c1C#N,11,7
Cc1oc(-c2cccc(F)c2)nc1CC(=O)N1CCc2ccccc2C1c1ccc(F)cc1 (stereo not drawn),5,10
CCCCc1nc2cc(C(=O)NCCSc3nncn3C)ccc2o1,5,1
O=C(c1cccc(F)c1)N(CC(=O)N1CCc2sccc2C1c1ccc(Cl)cc1Cl)C1CC1 (stereo not drawn),-2,-10
FC(F)(F)c1ccccc1CSc1nccn1C1CC1,-3,-2
Cc1ccc(NC(=O)CC(=O)N2CCN3C(=O)CNC(=O)C3C2)c(C)c1 (stereo not drawn),4,6
CCOC(=O)c1sc(-c2ccc(Cl)cc2)cc1NC(=O)CN1CCN(S(N)(=O)=O)CC1,0,25
CNC(=O)c1cc(-c2cccc(C(C)OC)c2)ccc1Cl (stereo not drawn),0,0
CCNC(=O)C1(C)CCCN1C(=O)c1ccccc1F (stereo not drawn),5,4

# Arranged by SMILES length (smallest number first): part of the list above
SMILES,NPYLR7 agonist,NPYLR7 agonist max-min
CCCCc1nc2cc(C(=O)NCCSc3nncn3C)ccc2o1,5,1
Cc1oc(-c2cccc(F)c2)nc1CC(=O)N1CCc2ccccc2C1c1ccc(F)cc1 (stereo not drawn),5,10
CCOC(=O)c1sc(-c2ccc(Cl)cc2)cc1NC(=O)CN1CCN(S(N)(=O)=O)CC1,0,25

# (more compounds)
SMILES,NPYLR7 agonist,NPYLR7 agonist max-min
CC(C)Sc1n[nH]c(NS(=O)(=O)c2cccc(F)c2)n1,2,-3
O=C(NCc1ccnc2ccccc12)C1CCOc2ccccc21 (stereo not drawn),-2,1
COc1ccc(Oc2ccc([N+](=O)[O-])cc2C(=O)N(C)C2CCN(C)CC2)cc1,-8,-14
O=C(Nc1ccccc1F)C1C2CC/C=C\CC/C=C/CCC21 (stereo not drawn),-7,-10
CCN1CCN(c2nc3c(c(=O)n(C)c(=O)n3C)n2CCSc2nccc(C)n2)CC1,-7,-7
COc1cc2c(cc1OC)C(c1c(F)cccc1Cl)N(C(=O)c1ccco1)CC2 (stereo not drawn),-1,5
Cc1ccc(C(=O)NCc2ccco2)cc1S(=O)(=O)N1CCOCC1,-3,-7
CCOC(=O)C1(Cc2cccc(F)c2)CCN(C(=O)C2CCC2)CC1,1,-2
COCCOCCS(=O)(=O)Nc1ccccc1C(C)C,-1,-1
O=C(CC1CCCC1)Nn1cnc2c(cnn2-c2ccc(F)cc2)c1=O,5,4
CN(C)S(=O)(=O)c1ccc(-c2nc(C#N)c(NCc3cccnc3)o2)cc1,-4,13
O=C(O)CCn1[nH]c(=O)ccc1=O,2,0
CC(=O)c1cccc(NC(=O)Nc2ccc3nc([C@@H]4O[C@H](CO)[C@@H](O)[C@H](O)[C@H]4O)[nH]c3c2)c1,11,16
CCOC(=O)CSc1nc(N)c(C#N)c(CC(C)C)c1C#N,13,9
Oc1ccc(Nc2nc3nonc3nc2Nc2ccc(O)cc2)cc1,-2,-1
O=C(NC1CCN(c2ccccc2C(=O)N2CCN(c3ccccc3Cl)CC2)CC1)c1cccs1,5,6
Cc1cc(Nc2ccc(S(=O)(=O)N3CCC(C)CC3)cc2[N+](=O)[O-])ccc1N1CCN(C)CC1,-1,2
CCCCNC(=O)N1CCN(c2nc(Cc3ccccc3)nc3onc(-c4cccc(Oc5ccccc5)c4)c23)CC1,4,10
CC(=O)Nc1cccc(C(C)NS(=O)(=O)N2CC(C)CC(C)C2)c1 (stereo not drawn),-7,-9
CC(c1ccc(-c2ccc(C(=O)O)c(Cl)c2)cc1)N1CCCCC1 (stereo not drawn),-2,-1
COCc1nn2c(nnc3c(=O)n(C(C)C)ccc32)c1-c1ccc(F)cc1,4,3
CCOC(=O)CCNC(=O)N1CCCC(CNC(=O)c2ccc(-c3ccccc3)cc2)C1 (stereo not drawn),3,-4
COc1cccc(C(=O)N2CCSC23C(=O)N(Cc2cccc(C)c2)c2ccc(F)cc23)c1 (stereo not drawn),1,4
O=C(NC1CC(=O)N(Cc2ccccc2Cl)C1)C1CCC1 (stereo not drawn),6,6
CCN(C(=O)Cc1cccc2cccnc12)C1CCS(=O)(=O)C1 (stereo not drawn),1,1
CCCOc1cc(N)ccc1C(=O)OCCN(CC)CC,-14&11,-4&2
CC(C)(C)CC(=O)N1CCN(S(=O)(=O)c2ccc(Cl)c(Cl)c2)CC1,11,20
CCCc1c(OCC(O)COc2ccc3c(=O)cc(C(=O)O)oc3c2CCC)ccc(C(C)=O)c1O (stereo not drawn),-2,-9
O=C(OCCN1CCOCC1)C1(c2ccccc2)CCCCC1,5,-59
COc1ccc(CNS(=O)(=O)C2CCCCC2Cl)cc1OC (stereo not drawn),7,3

# Some of the entries so far, field by field.
CCCOc1cc(N)ccc1C(=O)OCCN(CC)CC
  NPYLR7 agonist: -14&11
  NPYLR7 agonist max-min: -4&2
CC(C)(C)CC(=O)N1CCN(S(=O)(=O)c2ccc(Cl)c(Cl)c2)CC1
  NPYLR7 agonist: 11
  NPYLR7 agonist max-min: 20
CCCc1c(OCC(O)COc2ccc3c(=O)cc(C(=O)O)oc3c2CCC)ccc(C(C)=O)c1O (stereo not drawn)
  NPYLR7 agonist: -2
  NPYLR7 agonist max-min: -9
O=C(OCCN1CCOCC1)C1(c2ccccc2)CCCCC1
  NPYLR7 agonist: 5
  NPYLR7 agonist max-min: -59

# One compound at a time, from the list above. Values in the order: NPYLR7 agonist, NPYLR7 agonist max-min
# CCCc1c(OCC(O)COc2ccc3c(=O)cc(C(=O)O)oc3c2CCC)ccc(C(C)=O)c1O (stereo not drawn) across the screens: -2, -9
# O=C(NC1CC(=O)N(Cc2ccccc2Cl)C1)C1CCC1 (stereo not drawn) across the screens: 6, 6
# O=C(OCCN1CCOCC1)C1(c2ccccc2)CCCCC1 across the screens: 5, -59
# CCOC(=O)CCNC(=O)N1CCCC(CNC(=O)c2ccc(-c3ccccc3)cc2)C1 (stereo not drawn) across the screens: 3, -4
# COCc1nn2c(nnc3c(=O)n(C(C)C)ccc32)c1-c1ccc(F)cc1 across the screens: 4, 3

# More records
SMILES,NPYLR7 agonist,NPYLR7 agonist max-min
Cc1csc(=Nc2ccc(Cl)c(Cl)c2)n1CC1CCCO1 (stereo not drawn),2,9
COc1ccc(-n2nc(C(C)(C)C)cc2NC(=O)CN(CC(C)C)C(=O)NC23CC4CC(CC(C4)C2)C3)cc1,1,-7
Cc1cccc2[nH]c(CCN(C)Cc3cccc4c3OCO4)nc12,2,19
C=CCOCC(O)CN(Cc1ccco1)Cc1c(-c2ccccc2)noc1N1CCCCC1 (stereo not drawn),9,12
Cc1nc2c(=O)n(CC(=O)NC(C)(C)C)nc(-c3cccs3)c2s1,-1,-4
COc1ccc(CSc2nncn2C2CC2)c(Br)c1OC,1,0
O=C(NCc1ccccn1)c1ccc(CSc2nc(-c3ccccc3)cc(N3CCN(c4ccccc4F)CC3)n2)cc1,12,15
